# Assay outcomes (PubChem)
# miR-21 FLuc – qHTS Assay for Modulators of miRNAs and/orActivators of miR-21; HeLa miR-21 FLuc reporter, luciferase, 48 h; Potency, µM (series often up to 38.3 µM), for the others: at the highest dose reporter change, positive = more light; 340,000 tested, under 10 active; active = well fitted rising curve with a large enough effect; inconclusive = small, poorly fitted or top-dose-only effect; inactive = no such curve, though single readings can be large or run the other way;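 also: % of control where 0% means no effect; miR-21 action dims this reporter so a rising signal means less miR-21 action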
#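 Luminescence from a firefly luciferase reporter carrying a miR-21 binding site downstream, stably expressed under a CMV promoter in HeLa cells that make miR-21 endogenously, reports miRNA modulation after 48 h compound exposure up to approximately 40uM final.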
# Rango dissoc inh – qHTS Assay for Inhibitors of RanGTP induced Rango (Ran-regulated importin-beta cargo) - Importin beta complex dissociation. Biochemical FRET Rango-importin beta, RanGTP-induced dissociation. 340,000 compounds, 0.071% hits. Potency, µM (doses to about 46.1 µM), inactives show top-dose activity change, negative = inhibition; active means falling FRET ratio curve, often poorly fitted, with flat reads before Ran was added; inconclusive means other falling curves, or compound fluorescence or quenching; inactive means flat or rising ratio curve;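 also: potency is read from the fitted curve at half-maximal effect; % of control where 0% means no effect; nearly all actives have a fitted effect of over 45% in size; -100% = wells without RanGTP and RCC1; the record marks most hits as doubtful in a second field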
#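 Two FRET readings bracket the reaction: one 5 min after compound meets Rango–importin beta, another 45 min after RanGTP-RCC1 (0.6 uM Ran, 0.2 uM RCC1, 2 mM GTP) is added. Only the second defines inhibition.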
# GLA inh pH 4.5 – qHTS Assay for Inhibitors of Human alpha-Galactosidase at pH 4.5 | purified enzyme, 4-MU-alpha-Gal fluorescence, pH 4.5 | activity change, negative = inhibition, % at 105 µM | 230,000 tested, under 10 active | AID 1467, 2008; inconclusive = small, poorly fitted or top-dose-only inhibition, or a rising curve; inactive = flat fitted curve, though single readings scatter; no compound was filed as active;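 also: 0% = full activity with enzyme and -100% = basal without enzyme; dose as in the result columns while the protocol names 77 µM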
# Rango-impB inh – qHTS Assay for Inhibitors of Rango (Ran-regulated importin-beta cargo) - Importin beta complex formation | Importin subunit beta-1 (Homo sapiens), Q14974 | AID 540263, 2011 | 340,000 compounds, 0.031% hits | Rango CFP/YFP FRET sensor + importin beta, 45 min | Potency, µM (series often up to 92.2 µM), for the others: at the top dose inhibition of complex formation; active = rising FRET ratio curve, often small or poorly fitted; inconclusive = mostly compound fluorescence or quenching in the first reads; inactive = flat curves in all reads;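 also: potency is read from the fitted curve at half-maximal effect; 0% = DMSO wells and 100% = buffer wells lacking importin beta; nearly all actives have a fitted effect of over 15% in size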
# Target sequence (Q14974 whole entry, looked up): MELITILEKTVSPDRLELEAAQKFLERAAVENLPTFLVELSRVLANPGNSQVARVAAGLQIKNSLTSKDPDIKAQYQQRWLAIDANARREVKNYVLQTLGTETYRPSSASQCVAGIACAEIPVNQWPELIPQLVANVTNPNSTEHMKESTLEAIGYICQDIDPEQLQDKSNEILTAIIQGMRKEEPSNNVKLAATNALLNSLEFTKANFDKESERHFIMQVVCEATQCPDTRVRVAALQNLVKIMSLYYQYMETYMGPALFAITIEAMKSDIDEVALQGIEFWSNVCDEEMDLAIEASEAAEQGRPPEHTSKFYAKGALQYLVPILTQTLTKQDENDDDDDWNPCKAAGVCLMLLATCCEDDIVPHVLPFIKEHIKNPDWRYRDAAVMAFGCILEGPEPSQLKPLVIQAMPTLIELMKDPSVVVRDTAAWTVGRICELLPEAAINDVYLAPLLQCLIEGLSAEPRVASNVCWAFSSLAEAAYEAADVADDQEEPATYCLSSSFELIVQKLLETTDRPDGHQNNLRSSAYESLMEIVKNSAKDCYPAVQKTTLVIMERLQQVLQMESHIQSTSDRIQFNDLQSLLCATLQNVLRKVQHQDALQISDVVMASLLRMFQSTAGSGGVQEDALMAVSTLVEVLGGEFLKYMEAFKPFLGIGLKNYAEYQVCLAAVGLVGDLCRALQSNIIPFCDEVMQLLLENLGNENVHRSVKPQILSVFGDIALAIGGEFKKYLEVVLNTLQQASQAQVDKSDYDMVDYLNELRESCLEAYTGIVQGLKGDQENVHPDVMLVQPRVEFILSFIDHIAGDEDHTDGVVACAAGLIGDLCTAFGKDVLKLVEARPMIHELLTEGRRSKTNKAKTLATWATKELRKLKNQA
#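 FRET biosensor Rango (snurportin 1 IBB between N-terminal EYFP and C-terminal Cerulean), 50 nM in PBS/1 mM DTT/0.02% Tween-20/0.1% BSA, preincubated 5 min RT with compound; 0.125 microM importin beta added, 45 min RT, CFP/YFP FRET ratio read.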
# Starred values were filed as active, the others as inactive; ? = inconclusive; nt = not tested or not shown.
SMILES,miR-21 FLuc,Rango dissoc inh,GLA inh pH 4.5,Rango-impB inh
O=C(N/N=C/c1cccnc1)c1ccc2c(c1)OCCO2,-15%,-5%,6,0.1%
CN1C(=O)CSc2ccc(NC(=O)N3CCC(N4CCCCC4)CC3)cc21,-5%,6%,4,0.2%
Cc1csc(NC(=O)c2ccccc2[N+](=O)[O-])n1,-8%,16%,4,1.7%
Cn1cccc1C(=O)OCC(=O)N1c2ccccc2NC(=O)C1(C)C,0%,-3%,-17,-3.1%
CCC1=NN(C(=O)Cc2ccccc2)C(O)(c2ccncc2)C1 (stereo unspecified),5%,-7%,-8,-0.3%
Cc1cc(NC(=S)NC(=O)/C=C/c2ccc(S(=O)(=O)N3CCOCC3)cc2)ccc1Br,-2%,8%,-3,4.4%
COc1ccc(N=Nc2cc(C)c(O)c(CN3CCCCC3)c2)cc1,-9%,34%,-4,-1.1%
CCOC(=O)CNC(=O)c1cccnc1,-6%,11%,4,-1.6%
C/C(=N\O)C(=O)OC1CC(C)CCC1C(C)C (stereo unspecified),1%,0%,3,0.1%
Cc1cc(OCC(=O)NN2C(=O)c3ccccc3C2=O)ccc1Cl,-4%,5%,nt,1.4%
O=C(CSCC(=O)N1CCCCC1)Nc1nc(-c2ccc(Cl)s2)cs1,-29%,-14%,0,2.4%
C[C@@H]1CN([C@H](C)CO)C(=O)c2cccc(NC(=O)Nc3ccc(F)cc3)c2O[C@H]1CN(C)C(=O)Nc1ccc(C(F)(F)F)cc1,nt,9%,nt,7.2%
CCCOC(=O)c1ccc(Oc2c(-c3ccc(O)cc3O)n[nH]c2C)cc1,-3%,-18%,7,-3.2%
Cc1ccccc1NC(=O)NNC(=O)c1ccc2ccccc2c1,-2%,11%,nt,1.1%
O=C(NC1CCCCC1)NC1(C(=O)N2CCN3CCCC3C2)CCCCC1 (stereo unspecified),-38%,0%,7,-3.8%
Oc1ccc(N2CCN(C(c3ccccn3)c3nnnn3C3CCCC3)CC2)cc1 (stereo unspecified),-11%,0%,-3,2.1%
O=C1NN(c2ccccc2)C(=O)/C1=C\c1ccccc1OCC(=O)N1CCOCC1,-5%,0%,2,-0.8%
CC(=O)C(C(C)=O)c1c(Cl)c(O)c(O)c2c(C(=O)c3ccccc3)coc12,?,2%,-2,1.0%
COc1ccccc1C(C)NC(=O)c1ccc(S(=O)(=O)NCc2ccco2)cc1 (stereo unspecified),nt,2%,nt,1.1%
O=C(O)c1ccccc1NC(=O)C(Cc1ccccc1)N1C(=O)c2ccccc2C1=O (stereo unspecified),-20%,1%,nt,3.0%
COc1ccc(N(C)S(=O)(=O)c2cccc(C(=O)N3CCN(Cc4ccc5c(c4)OCO5)CC3)c2)cc1,nt,-12%,nt,1.1%
O=[N+]([O-])c1ccc(CN2CCOCCOCCOCC2)cc1,-7%,17%,1,-0.8%
CN1CCN(C(=O)C2=C[C@@H](c3ccc4c(c3)OCO4)C[C@@H](OCc3ccc(CO)cc3)O2)CC1,-9%,-10%,0,?
COc1ccc(COCC(O)CN2CCC(C(N)=O)CC2)cc1 (stereo unspecified),-4%,-5%,1,-2.8%
Cn1c(CSCc2ccc(F)cc2)nnc1SCC(=O)Nc1cccc(C(=O)O)c1,0%,31%,0,0.3%
O=c1[nH]c(NCCO)nnc1Cc1ccc(Cl)cc1,-6%,-1%,nt,-1.1%
Cc1ccccc1NC(=O)CN1C(=O)c2cccnc2Oc2ccc(Cl)cc21,-8%,-7%,nt,-1.9%
CCN1CCN(Cc2ccc(NC(=O)c3ccc(C)c(NC(=O)c4ccnnc4)c3)cc2C(F)(F)F)CC1,1%,24%,5,6.0%
Cc1ccc2nc(NC(=O)CSCc3ccccc3)sc2c1,-15%,1%,6,-5.0%
CC12C(=O)N(Cc3ccco3)C(=O)C1C1c3ccccc3C2c2ccccc21 (stereo unspecified),6%,9%,-4,3.3%

# An excerpt from above, reduced to Rango dissoc inh, GLA inh pH 4.5 and Rango-impB inh:
Compound	Rango dissoc inh	GLA inh pH 4.5	Rango-impB inh
O=[N+]([O-])c1ccc(CN2CCOCCOCCOCC2)cc1	17%	1	-0.8%
CCN1CCN(Cc2ccc(NC(=O)c3ccc(C)c(NC(=O)c4ccnnc4)c3)cc2C(F)(F)F)CC1	24%	5	6.0%

# (list continues)
SMILES,miR-21 FLuc,Rango dissoc inh,GLA inh pH 4.5,Rango-impB inh
CC1CCCN(C(=O)COc2ccc(Nc3ccccc3)cc2)C1 (stereo unspecified),-10%,2%,-10,4.2%
O=C(N/N=C/c1ccc(-c2cccc([N+](=O)[O-])c2)o1)c1ccc([N+](=O)[O-])cc1,0%,-13%,-9,4.4%
CC(C)(C)C(=O)NC(NC(=O)C(C)(C)C)c1ccc([N+](=O)[O-])cc1,3%,-9%,0,-3.9%
CC(C)(O)C#Cc1ccc(CN2CCN(Cc3ccccc3)C(CCO)C2)s1 (stereo unspecified),0%,-8%,2,4.3%
CCn1c(Nc2ccccc2Cl)nc2ccccc21,-17%,30%,-5,-0.6%
CCOc1ccc(N(CC(=O)NCCc2ccccc2)C(=O)CCC(=O)Nc2nccs2)cc1,3%,-5%,nt,4.1%
O=C(O)c1cc(-c2ccccc2Cl)n(-c2ccccc2)n1,-11%,-8%,nt,-3.5%
Cc1ccc(NC(=O)Nc2c(C)n(C)n(-c3ccccc3)c2=O)cc1,-2%,-13%,nt,0.2%
C=C1CCN([C@@H](C)C(=O)NCCCCCC)S(=O)(=O)c2ccccc21,0%,0%,0,-1.7%
O=C(COC(=O)c1ccc(Br)o1)NCC1CCCO1 (stereo unspecified),-2%,2%,9,-5.1%
CCOC(=O)N1CCC2CC1c1cc(Cl)ccc12 (stereo unspecified),nt,-8%,nt,-1.3%
COCCN1C(=O)N[C@@H](c2ccccc2)[C@@H](C(=O)OC)[C@H]1C,nt,15%,1,-5.2%
O=C(c1ccc(Cl)cc1)C1CCN(C(=O)c2ccccc2)CC1,14%,16%,nt,-2.7%
Cc1cccc(OCc2nnc(SCC(=O)OC3CCCCC3)o2)c1,-1%,5%,-5,-1.6%
CCCCN(C)C(=O)C1CCCN(S(=O)(=O)c2ccc3c(c2)CC(C)N3C(=O)C2CC2)C1 (stereo unspecified),0%,5%,nt,-4.0%
O=C(CSc1nc2[nH]ncc2c(=O)n1-c1ccccc1)c1ccc2c(c1)OCCO2,-1%,-2%,1,2.3%
O=C(NC1CC1)c1ccc(S(=O)(=O)NC2CCCCCC2)cc1,-13%,17%,-8,0.1%
CCOC(=O)c1c(NC(=O)c2ccc(S(=O)(=O)N(C)CC3CCCO3)cc2)sc2c1CCN(C)C2 (stereo unspecified),13%,-12%,nt,?
O=C(c1ccc2c(c1)OCO2)N1CCC(Cc2ccccc2)CC1,-25%,-7%,2,-0.5%
O=C(Cc1ccccc1[N+](=O)[O-])OCC(=O)c1ccccc1Br,nt,1%,nt,-0.1%
O=C(NC(Cc1ccccc1)C(=O)O)c1ccc(S(=O)(=O)N2CCCCC2)cc1 (stereo unspecified),-4%,-5%,1,-0.3%
Cc1nc(N2CCC(C(N)=O)CC2)c2nnn(Cc3ccccc3)c2n1,-6%,5%,4,-1.7%
O=C(O)CCNS(=O)(=O)c1ccccc1C(F)(F)F,0%,-4%,3,-2.4%
O=C(Nc1ccc(Oc2ccc(NC(=O)C3CCCO3)cc2)cc1)C1CCCO1 (stereo unspecified),-8%,3%,0,-0.3%
Cc1onc(-c2c(Cl)cccc2Cl)c1C(=O)N1C=CC(C(F)(F)F)=NCC1,-10%,0%,2,-3.6%
C[C@H](NC(=O)Cc1cccc2ccccc12)C(=O)N1CCOCC1,nt,-4%,nt,0.0%
COc1ccc(NC(=O)c2ccccc2N(Cc2ccccc2)S(C)(=O)=O)cc1,3%,7%,1,4.6%
COCCN1CCCC(CNCc2cn(C)nc2-c2ccc(Oc3ccccc3)cc2)C1 (stereo unspecified),2%,-13%,-13,-1.2%
CCCCn1c(N)c(N(CCOC)C(=O)CCC2CCCCC2)c(=O)[nH]c1=O,nt,-15%,nt,?
Cc1cc(=O)n2nc(N3CCCC(C(=O)NCc4ccccc4C)C3)sc2n1 (stereo unspecified),1%,-13%,nt,0.0%
Cc1c(C(=O)O)oc2ccc(S(=O)(=O)N3CC(C)CC(C)C3)cc12 (stereo unspecified),1%,5%,-5,-0.1%
CCOc1c(Br)cc(C2CC(=O)Nc3cc(OC)c(OC)cc32)cc1OC (stereo unspecified),-5%,-6%,nt,4.1%
COCC1CCN(C(=O)c2ccc3oc(CCCc4ccccc4)nc3c2)C1 (stereo unspecified),-20%,-1%,nt,0.3%
COc1cc(CCC(=O)Nc2ccc(S(=O)(=O)N3CCCC3)cc2)cc(OC)c1OC,nt,0%,nt,-4.1%
Cc1ccccc1-c1nc2cc(Cl)ccc2c(=O)o1,3%,-8%,nt,-0.8%
CCCCC(Br)C(=O)Nc1ccc(S(=O)(=O)Nc2cc(C)nc(C)n2)cc1 (stereo unspecified),6%,-15%,nt,-0.2%
CC1CCN(C(=O)c2ccc(S(=O)(=O)N3CCCC3)cc2)CC1,nt,12%,nt,-0.2%
COc1ccc2nc(SC(C)C(=O)NC3(C#N)CCCCC3)[nH]c2c1 (stereo unspecified),nt,-4%,nt,-2.4%
Cc1oc(C(C)(C)C)cc1C(=O)N1CCN(c2ncccc2C(F)(F)F)CC1,9%,-5%,-5,0.1%
CCOc1ccc(NC(=O)CSc2nnc(C)n2C2CC2)cc1S(=O)(=O)N1CCCC1,nt,12%,nt,0.0%
N#Cc1cc2c(=O)n3ccccc3nc2n(Cc2ccco2)c1=NC(=O)c1ccco1,1%,?,3,?
CC(C)(C)OC(=O)CNC(=O)c1nc[nH]c1C(=O)N1CCNCC1,nt,-2%,nt,-0.1%
Cc1sc2nc(CN3CCOCC3)[nH]c(=S)c2c1C,-9%,3%,3,0.7%
O=C(Nc1nccs1)C(=O)c1c[nH]c2ccccc12,-33%,?,-1,?
COC(=O)[C@H](Cc1ccc(O)cc1)NC(=O)Cn1ccc(NC(=O)OCc2ccccc2)nc1=O,nt,-10%,nt,-0.2%
COc1cc(OC)cc(C(=O)NNC(=O)Cc2cccs2)c1,nt,0%,nt,6.8%
COc1cccc(/C(O)=C2/C(=O)C(=O)N(CCN(C)C)C2c2ccccn2)c1 (stereo unspecified),-13%,0%,4,3.0%
OC(CN1CCc2ccccc2C1)c1ccccc1 (stereo unspecified),-2%,0%,-11,-0.5%
CC(=O)c1ccc(Sc2ccccc2N)c([N+](=O)[O-])c1,-1%,-10%,3,3.8%
O=C1C2CCCCN2C(=O)N1CCCCN1CCN(c2ccccc2Oc2ccccc2)CC1 (stereo unspecified),15%,-6%,nt,-1.7%
Cc1cccc(NC(=O)c2cccc(N3C(=O)CCC3=O)c2)c1,-3%,2%,nt,0.8%
COc1cc(/C=C2\SC(=Nc3cccnc3)NC2=O)cc(OC)c1OC,2%,-3%,1,?
Cn1cc(CN2CCC(n3nccc3NC(=O)Cc3ccccc3)CC2)cn1,1%,6%,nt,-4.1%
c1cncc(-c2nn[nH]n2)c1,-5%,-8%,-2,0.3%
COc1ccccc1-c1sc2ccccc2c1-c1ccc(C(C)=O)cc1,-22%,-5%,nt,2.2%
CCCCCNC(=O)c1ccc2c(=O)n(CCCOCC)c(=S)[nH]c2c1,0%,2%,2,0.0%
CCCCCc1ccc(S(=O)(=O)Nc2cc(C)ccn2)cc1,3%,-11%,-1,-1.4%
O=S(=O)(NC1CCCCC1)c1ccc(N2CCOCC2)nc1,-11%,-15%,6,-0.5%

# By substructure: those above with a tert-butyl group
SMILES,miR-21 FLuc,Rango dissoc inh,GLA inh pH 4.5,Rango-impB inh
CC(C)(C)C(=O)NC(NC(=O)C(C)(C)C)c1ccc([N+](=O)[O-])cc1,3%,-9%,0,-3.9%
Cc1oc(C(C)(C)C)cc1C(=O)N1CCN(c2ncccc2C(F)(F)F)CC1,9%,-5%,-5,0.1%
CC(C)(C)OC(=O)CNC(=O)c1nc[nH]c1C(=O)N1CCNCC1,nt,-2%,nt,-0.1%

# Not all compounds are listed; rates above refer to the full screens.
